VDR inhibitor – inhibitors of human vitamin D receptor | VDR-SRC2-3 peptide fluorescence polarization, 2 h | Potency, µM, for inactives: max response, negative = inhibition, hits mostly inhibitors | 0.93% of 400,000 active; active means well fitted inhibition curve with a large enough effect; inconclusive means small, poorly fitted or top-dose-only effect, or another doubt; inactive means no such curve, though single readings can be large or run the other way; further: series mostly up to about 120 µM
Target sequence (P11473 whole entry, looked up): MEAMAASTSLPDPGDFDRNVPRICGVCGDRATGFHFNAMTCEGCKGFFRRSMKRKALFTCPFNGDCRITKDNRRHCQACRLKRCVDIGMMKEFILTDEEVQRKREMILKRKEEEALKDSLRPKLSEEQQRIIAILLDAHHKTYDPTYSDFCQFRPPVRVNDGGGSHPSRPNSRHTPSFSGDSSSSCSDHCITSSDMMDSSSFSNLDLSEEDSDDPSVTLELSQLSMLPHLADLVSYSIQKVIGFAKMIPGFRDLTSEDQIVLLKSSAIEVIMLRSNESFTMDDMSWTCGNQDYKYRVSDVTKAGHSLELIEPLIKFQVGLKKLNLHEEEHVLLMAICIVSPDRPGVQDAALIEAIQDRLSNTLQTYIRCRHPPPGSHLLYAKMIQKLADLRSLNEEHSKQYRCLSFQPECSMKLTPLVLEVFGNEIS
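Reagent solutions, kept cold and dark, are dispensed first; compounds are then pinned in at 23 nl, plates briefly spun, and incubated 2 h at ambient temperature. Inhibition of VDR–SRC2-3 peptide binding is read by fluorescence polarization.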
An asterisk follows results filed as active; ? = inconclusive; & = joins results of further samples. On the % scale 0 is the no-effect control and ±100 the full control effect; potency means the concentration at half of the fitted maximal effect. This is a subset (hit frequency here may not be typical).

SMILES	VDR inhibitor
COc1ccc(C(=O)N(CN2CCCC2=O)c2nccs2)cc1OC	3%
CCOc1ccc(CCNC(=O)CSc2nc3ccccc3nc2Cc2ccc(C)cc2)cc1OCC	-7%
OC(COc1cccc2ccccc12)CN1CCN(c2ccccn2)CC1 (stereo unspecified)	0%
CN1C(=O)c2ccc(NC(=O)C3CC3)cc2C1=O	25%
COc1ccc(-c2noc(-c3ccc(Br)o3)n2)cc1OC	-9%
COc1ccc(Cl)cc1NC(=O)NC(C)C	-16%
CC(c1ccccc1)N1CNc2c(c(=O)n(C)c(=O)n2C)C1 (stereo unspecified)	8%
C=CCn1c(=O)c2ccccc2n2c(SCc3cc(=O)n4ccsc4n3)nnc12	-8%
CCOC(=O)c1cc(-c2ccccc2)n(-c2cccc(C(=O)Nc3cccc(F)c3)c2)c1C	6%
O=C(O)Cc1ccc(NC(=O)C(c2ccccc2)c2ccccc2)cc1	-21%
Cc1ccc(NC(=O)COC(=O)c2ccc3c(c2)OCO3)cc1S(=O)(=O)N1CCCCC1	-10%
COc1ccc(OC(C)C(=O)NCc2nc(-c3ccc(Cl)cc3)no2)cc1 (stereo unspecified)	11%
O=C1c2ccccc2C(=O)N1CCc1nn[nH]n1	9%
COc1ccc(-c2n[nH]c(C)c2-c2cc(OC)ccc2O)cc1	8%
O=C(NC1(C(F)(F)F)NC(=O)N(c2ccccc2F)C1=O)c1ccncc1 (stereo unspecified)	-5%
Cc1c(CN(C)Cc2cn(C)nc2-c2ccccc2F)[nH]c2ccccc12	-5%
O=C(OCC1OC(OC(=O)c2cc(O)c(O)c(OC(=O)c3cc(O)c(O)c(O)c3)c2)[C@@H](OC(=O)c2cc(O)c(O)c(OC(=O)c3cc(O)c(O)c(O)c3)c2)C(OC(=O)c2cc(O)c(O)c(OC(=O)c3cc(O)c(O)c(O)c3)c2)C1OC(=O)c1cc(O)c(O)c(OC(=O)c2cc(O)c(O)c(O)c2)c1)c1cc(O)c(O)c(OC(=O)c2cc(O)c(O)c(O)c2)c1 (stereo partly specified)	13µM*
COc1ccc(NC2CCCN(C(=O)c3ccc(C)c(N4CCNC4=O)c3)C2)cc1 (stereo unspecified)	-2%
COc1ccc(/C=N/NC(=O)C(=O)NCC2CCCO2)cc1 (stereo unspecified)	-7%
COc1ccc(C)cc1NC(=O)NNC(=O)C1CCC(C(C)(C)C)CC1 (stereo unspecified)	4%
CC12CN3CC(C)(CN(C1)C3c1ccc3ccccc3c1O)C2=O (stereo unspecified)	-3%
C=CCN1c2ccccc2[C@]23C[C@@H](C(=O)OC)N(C(=O)OCC)C2=NC(C(=O)OC)=C(C(=O)OC)[C@H]13	7%
CCCSc1nc2sc3c(c2c(=O)[nH]1)CCN(Cc1ccccc1)C3	-24%
Cn1cnnc1SCC(=O)NNC(=O)c1ccc(Cl)cc1	?
CCOC(=O)Cc1csc(NC(=O)Cn2c(=O)oc3ccccc32)n1	7%
C=CCc1cccc(Cl)c1OCCCNC1CCCC1	-3%
NC(=O)COC(=O)CCCSc1nc2ccccc2s1	-9%
Cc1cc(NC(=O)c2cccc(S(=O)(=O)N3CCC(C)CC3)c2)no1	1%
CCCCNC(=O)CSc1nc(O)c(Cc2ccc(OC)cc2)c(=O)[nH]1	5%
O=C(c1ccc(Cl)c(S(=O)(=O)N2CCCCC2)c1)N1CCCC(C(F)(F)F)C1 (stereo unspecified)	2%
Cc1ccc(-c2nnn(CC(=O)N(Cc3ccccc3)C(C(=O)NC3CCCC3)c3ccncc3)n2)o1 (stereo unspecified)	4%
Oc1ccc(NCc2cccs2)cc1	-17%
O=C(NC(Cc1c[nH]c2ccccc12)C(=O)Nc1ccc(OC(F)(F)F)cc1)c1cccs1 (stereo unspecified)	1%
O=c1ccc(-c2ccccc2)nn1Cc1c(F)cccc1Cl	7%
O=c1[nH]c(N2CCN(Cc3ccc4c(c3)OCO4)CC2)nc2c1CCCC2	-3%
CN1CCc2nc(SCC(=O)Nc3ccc(Cl)cc3)c(C#N)cc2C1	-11%
O=C(CN1CCN(c2ccccc2)CC1)Nc1ccc(Oc2ccccc2)cc1	-9%
CCNc1nc(Oc2ccc(=O)n(-c3ccccc3)n2)nc(N2CCOCC2)n1	2%
O=c1[nH]c2ccc(N/C(=N/S(=O)(=O)c3ccccc3)c3ccccc3)cc2[nH]1	-1%
CCOc1nc(Nc2ccc(F)cc2)nc(N2CCN(c3ccc(OC)cc3)CC2)n1	-12%
Nc1cccc(N2C(=O)c3cccc4c(N)ccc(c34)C2=O)c1	-1%
COc1ccc(OC)c(C2=C[N+](=O)C(C)(C)C(C)(C)N2[O-])c1	?
COc1ccc(-c2cc3ccc(O)cc3oc2=O)cc1	1%
Oc1ccc(C(=S)N2CCN(Cc3ccccc3)CC2)cc1	50µM*
Cc1ccc(-n2nc3c(=O)n(CC(=O)NCc4ccccc4)nc(C)c3c2C)cc1	1%
COCCN(Cc1ccccc1)P(=O)(O)c1ccccc1OCC(=O)O	-3%
CN(Cc1ccccc1F)C(=O)CN1c2cccc3cccc(c23)S1(=O)=O	-6%
CC(=O)OCCN1C(=O)c2c(C)nc3ccc(S(=O)(=O)N4CCOCC4)cc3c2C1=O	-1%

An excerpt from above in order of their number in VDR inhibitor, highest first.
SMILES	VDR inhibitor
CCNc1nc(Oc2ccc(=O)n(-c3ccccc3)n2)nc(N2CCOCC2)n1	2%
C=CCc1cccc(Cl)c1OCCCNC1CCCC1	-3%
Cc1ccc(NC(=O)COC(=O)c2ccc3c(c2)OCO3)cc1S(=O)(=O)N1CCCCC1	-10%
CN1CCc2nc(SCC(=O)Nc3ccc(Cl)cc3)c(C#N)cc2C1	-11%

(further entries)
SMILES	VDR inhibitor
CCc1ccc(O)c(N=Cc2ccccc2O)c1	5%
O=C(c1ccccc1)c1nn(-c2cccc(Cl)c2)c2nc(-c3ccccc3)cc(=O)n12	-15%
Fc1ccccc1C1CCN(Cc2nc(CC3CC3)no2)C1 (stereo unspecified)	-11%
COc1ccccc1CCNc1ncnc2c1nnn2C	1%
CSc1ccccc1OCc1cc(C(=O)N2CCN3CCCC3C2)no1 (stereo unspecified)	-6%
CC(C)C[C@H](NC(=O)[C@@H](N)Cc1ccccc1)C(=O)N[C@@H](Cc1ccccc1)C(=O)N[C@@H](CCC(N)=O)C(=O)N1CCC[C@H]1C(=O)N[C@@H](CCC(N)=O)C(=O)N[C@@H](CCCN=C(N)N)C(=O)N[C@@H](Cc1ccccc1)C(N)=O	-1%
Cc1ccc(NC(=O)c2ccc(Cl)cc2[N+](=O)[O-])nc1	-17%
Cc1nc(N2CCOCC2)c2oc3ccccc3c2n1	-9%
O=C(NCCCc1nc2ccccc2[nH]1)c1cccs1	4%
O=C1/C(=N\S(=O)(=O)c2cccs2)C([n+]2ccccc2)=C([O-])c2ccccc21	16%
O=c1cc(CSc2nnnn2-c2ccccc2)nc(Nc2ccc(F)cc2)[nH]1	1%
CN1CCN(C(=O)C2C3C=CC(C3)C2C(=O)O)CC1 (stereo unspecified)	-2%
CC(=O)Nc1sc2c(c1C(N)=O)CCN(Cc1ccccc1)C2	-7%
COc1ccc(NS(=O)(=O)c2ccc(NC(=S)NC(=O)/C=C/c3ccc(C)cc3)cc2)nn1	-5%
CC(C)(C)c1ccc(C(=O)NC(=S)Nc2sc3c(c2C#N)CCC3)cc1	-22%
Cc1c(NC(=O)CCCOc2ccccc2)cccc1[N+](=O)[O-]	-2%
CNc1nc(Cl)c(SC)c(NC2CCCCC2)n1	-5%
O=[N+]([O-])c1ccccc1N=NNc1ccccc1	-11%
Cc1ccc(C(=O)OCC(=O)Nc2cccc(Cl)c2C)c(O)c1	-19%
CN(C)S(=O)(=O)c1cc([N+](=O)[O-])ccc1N1CCCCCC1	-2%
Cc1ccc(N=Nc2c(C)[nH][nH]c2=O)c(C)c1	-5%
CCO[C@H]1OC(C(N)=O)=C[C@@H](c2csc3ccccc23)[C@@H]1CCCO	3%
N/C(=N\NS(=O)(=O)c1cc(C(F)(F)F)cc(C(F)(F)F)c1)c1ccccn1	-2%
CO/N=C(/C(=O)N[C@@H]1C(=O)N2C(C(=O)O)=C(CSc3nnnn3C)CS[C@H]12)c1csc(N)n1	?
COc1ccc(N(C(=O)CNC(=O)c2cccs2)C(C(=O)NCC2CCCO2)c2ccccc2)c(OC)c1 (stereo unspecified)	-7%
COc1ccc(-c2nc(CS(=O)CC(=O)NCCN3CCCCC3C)c(C)o2)cc1OC (stereo unspecified)	-5%
COCC(=O)Nc1nnc(C2CCCCC2)s1	-5%
O=c1cc(C(F)(F)F)[nH]c2ccccc12	-21%
O=C(NC1CCCCC1)c1ccc(CSc2nc3ccncc3n2Cc2cccc(F)c2)cc1	-1%
Cc1ccc2nc(NC(=O)CN3CCOCC3)sc2c1	-22%
Cc1nn(C(C)C(=O)NNC(=S)Nc2ccc(F)cc2)c(C)c1[N+](=O)[O-] (stereo unspecified)	-9%
Cc1cc(C)c(NC(=O)c2sc3nc(C)cc(C)c3c2NC(=O)c2ccccc2)c(C)c1	-1%
Cc1c(Br)ccc(NC(=O)Cn2nc(-c3cccs3)ccc2=O)c1C	19%
C=CCn1c(SCC(=O)N(C)C2CCS(=O)(=O)C2)nc2ccccc2c1=O (stereo unspecified)	-17%
O=C(Cc1cccc(NC(=O)C2CCCN(C(=O)C3CCC3)C2)c1)Nc1cccc(C(=O)N2CCOCC2)c1 (stereo unspecified)	-16%
CC1CC(C)CN(C(=O)CSc2nnc(CSc3ncccn3)n2C)C1 (stereo unspecified)	12%
Cc1cc(C)c(NC(=O)c2cc3c(nc4sccn43)s2)c(C)c1	-4%
CC(O)C(O)[C@H]1CNc2nc(N)[nH]c(=O)c2N1 (stereo partly specified)	-12%&-22%
COCCC(=O)N1CCC(Oc2ccc(C(=O)N3CCC(N(C)C)C3)cc2)CC1 (stereo unspecified)	-7%
Cc1cc2ccccn2c1C(=O)c1ccc(F)cc1	-2%
COc1ccc(CC(=O)Nc2c(C(N)=O)oc3ccccc23)cc1	11%
CCOC(=O)N1CCc2c(sc(NCc3ccc(OC)c(OC)c3OC)c2C(=O)Nc2ccc(OC)cc2OC)C1	-9%
Cc1c(NC(=O)N2CCCCCC2)c(=O)n(-c2ccccc2)n1C	-9%
COc1ccc(N(C)S(=O)(=O)c2ccc3c(c2)CCN3C(=O)C2CC2)c(OC)c1	4%
CC(=O)c1ccc(-n2nnnc2SCC(=O)NNC(=O)c2ccco2)cc1	5%
Cn1cc(Br)c(C(=O)Nc2nccs2)n1	-8%
CCOC(=O)CSc1nc2ccc(NC(=O)COc3ccccc3)cc2s1	3%
Cc1ccc(SCc2cc(=O)[nH]c(N3CCN(Cc4ccc5c(c4)OCO5)CC3)n2)cc1	12%
CCOc1ccc(NS(=O)(=O)c2ccc(SC)cc2)cc1	29%
Cc1cc(C)cc(OCC(=O)Nc2c(C(=O)c3ccccc3)oc3ccccc23)c1	-13%
CCn1c(SCC(=O)c2ccccc2)nnc1-c1cc2cc(Br)ccc2o1	-20%
CC(=O)NC(Cc1c[nH]c2ccccc12)C(=O)OCC(=O)Nc1ccc2c(c1)OCO2 (stereo unspecified)	0%
CC(O)[C@H]1CC[C@H]2[C@@H]3CC[C@H]4C[C@@H](O)CC[C@]4(C)[C@H]3/C(=N/O)C[C@]12C (stereo partly specified)	7%
CCn1c(SCc2ccccc2Cl)nc2nc3c(cc2c1=O)CCCC3	-22%
O=C1Nc2ccccc2/C1=N\N1CCOCC1	7%
CCCN(C(=O)c1ccc2c(SCC(=O)O)c3c(nc2c1)CCC3)c1cccc(C)c1	-17%
Cc1ccc(CSCC(=O)Nc2ccc(F)cc2)cc1	-2%
O=c1[nH]nc(-c2ccc(OCc3ccc(Cl)cc3Cl)cc2)o1	-2%
O=C(NCC(c1ccc2c(c1)OCO2)N1CCOCC1)c1ccc(F)cc1 (stereo unspecified)	-16%
O=c1onc(-c2ccccc2)c2ccccc12	0%

2 records drawn at random from the list so far, as already listed:
SMILES	VDR inhibitor
COc1ccc(NS(=O)(=O)c2ccc(NC(=S)NC(=O)/C=C/c3ccc(C)cc3)cc2)nn1	-5%
O=C(c1ccccc1)c1nn(-c2cccc(Cl)c2)c2nc(-c3ccccc3)cc(=O)n12	-15%

The list continues:
SMILES	VDR inhibitor
O=C(NC(CC(=O)N1CCCC(C(F)(F)F)C1)c1ccccc1)c1ccccc1Cl (stereo unspecified)	-1%
COC(=O)c1c(C)cc(O)cc1O	1%&-7%
CN(C)c1nnnn1-c1ccc(Cl)cc1Cl	1%
COc1ccc(Nc2nc(C)cc(C)c2C#N)cc1	-2%
Cc1ccc(-n2nc3c(c2NC(=O)c2cccs2)CS(=O)(=O)C3)c(C)c1	18%
CCCCC1C2C(=O)N(c3ccccc3)C(=O)C2ON1c1ccccc1 (stereo unspecified)	4%
COc1ccc(CNC(=O)c2sc3nc4n(c(=O)c3c2C)CCC4)cc1	11%
COc1cccc(C2(CSc3nnc(-c4cc(OC)c(OC)c(OC)c4)o3)OCCO2)c1	0%
Cc1ccccc1C(=O)NCCCCc1ccccc1	-16%
COc1ccc(CCC(=O)Nc2ccc(Cl)c(S(=O)(=O)N3CCOCC3)c2)cc1OC	0%

For convenience, part of the list above:
SMILES	VDR inhibitor
COc1ccc(CNC(=O)c2sc3nc4n(c(=O)c3c2C)CCC4)cc1	11%
COc1cccc(C2(CSc3nnc(-c4cc(OC)c(OC)c(OC)c4)o3)OCCO2)c1	0%
Cc1ccccc1C(=O)NCCCCc1ccccc1	-16%
COc1ccc(CCC(=O)Nc2ccc(Cl)c(S(=O)(=O)N3CCOCC3)c2)cc1OC	0%

Compound activity from PubChem.
